# VACV Venus inh: qHTS for Stage-Specific Inhibitors of Vaccinia Orthopoxvirus: Venus Reporter Primary qHTS. Vaccinia virus Venus reporter expression, fluorescence. Potency, µM (doses to about 36.5 µM), for inactives: at the top dose activity change, negative = inhibition, actives largely listed as inhibitors. 330,000 tested, 0.46% active; active means well fitted inhibition curve with a large enough effect; inconclusive means small, poorly fitted or top-dose-only effect; inactive means no such curve, though single readings can be large or run the other way; tested in A549 cells; also: nearly all actives have a fitted effect of over 30% in size; inactives centre near -10
# VACV mCherry inh: qHTS for Stage-Specific Inhibitors of Vaccinia Orthopoxvirus: mCherry Reporter Primary qHTS. Vaccinia virus mCherry reporter infection, fluorescence; about a quarter of the inactives have no number. Potency, µM (series often up to 36.5 µM), for inactives: at the top dose activity change, negative = inhibition, actives largely listed as inhibitors. 310,000 tested, 0.63% active. AID 720579, 2013; active = well fitted inhibition curve with a large enough effect; inconclusive = small, poorly fitted or top-dose-only effect; inactive = no such curve, though single readings can be large or run the other way; tested in A549 cells; also: nearly all actives have a fitted effect of over 35% in size; inactives centre near -10
# * marks the source's active call; other numbers are inactive results; i = inactive; ? = inconclusive; · = no result given; [ ] = remark or other dose. % is scaled to controls: 0 for no effect and ±100 for the full control effect; potency is read from the fitted curve at half-maximal effect.
no.	Structure	VACV mCherry inh	VACV Venus inh
1	Cc1ccc(C(=O)NCC(=O)OCc2c(F)cccc2Cl)cc1	-12.4%	-3.6%
2	COc1ccc(-c2c(C(C)=O)c(C)nc3sc4c(c23)NC(c2ccccc2)NC4=O)cc1 (centres undefined)	-8.1%[1.46 µM]	-11.7%
3	CCCCCCC(=O)Nc1nc(C)c(-c2csc(Nc3ccccc3OC)n2)s1	?	?
4	COc1cc(S(=O)(=O)Nc2ccc(C)cc2)ccc1N=Cc1c(C)[nH]n(-c2ccccc2)c1=O	-19.2%	?
5	CCOc1ccc(CN(C)C(=O)CNC(=O)C2CCCCC2)cc1OC	i	-4.0%
6	COc1ccccc1NC(=O)Nc1cccc(NC(C)=O)c1	-9.1%	-9.2%
7	O=C(NC1CCSc2ccccc21)c1ccc([N+](=O)[O-])cc1 (centres undefined)	-23.5%	-10.1%
8	COc1ccc(Br)c(C(=O)NCC2CCCCC2)c1	6.6%	-0.6%
9	O=C(O)C(c1ccccc1)N1C(=O)/C(=C/c2cccs2)SC1=S (centres undefined)	-19.7%	8.2%
10	CNc1c(NC(=O)c2cc(OC)cc(OC)c2)c(=O)oc2ccccc12	-11.7%	-1.1%
11	Cc1ccn2c(Nc3ccc4c(c3)OCO4)c(-c3ccc(N(C)C)cc3)nc2c1	-23.2%	-18.0%
12	Cn1c(=O)n(C)c2cc(NC(=O)c3ccccc3[N+](=O)[O-])c(Br)cc21	-12.5%	4.2%
13	Fc1cccc(CCN2CCNC[C@@H]2c2ccccc2)c1	i	-19.6%
14	N#Cc1ccccc1NC(=O)COc1c(Br)cc(Br)c2cccnc12	i	-2.2%
15	Cc1cccc(Cn2c(SCc3ccc(C(=O)NCc4ccccc4F)cc3)nc3cccnc32)c1	-28.5%	-19.9%
16	COc1ccc(C(=O)NCC[N+](C)(C)C)cc1	5.3%	2.3%
17	Cc1ccc(C(=O)CN2C(=O)c3ccccc3S2(=O)=O)cc1	0.0%	-8.0%
18	Cc1ccc2scc(N3CCc4ccccc4C3)c(=O)c2c1	-21.6%	-15.7%
19	CC1(C)CC(=O)c2c(oc3c(Cl)cc(NS(=O)(=O)c4ccc(Br)cc4)cc23)C1	1.4%	-2.0%
20	Cc1cccc(C)c1NC(=O)CN(C)C(=O)CCc1nc2sc3c(c2c(=O)[nH]1)CCCC3	-8.6%	-10.6%
21	C[N+](C)(C)c1ccc(/C=N/Nc2nc(Cl)c(C#N)c(Cl)c2Cl)cc1	-7.2%	2.3%
22	COC(=O)c1c(F)c(F)c(N2CCOCC2)c(F)c1F	-13.5%	-3.9%
23	COc1ccc(C(=O)NCCS(=O)(=O)NCc2ccco2)cc1	i	-18.3%
24	O=C(NN=Cc1cc(Cl)ccc1[N+](=O)[O-])c1cccc2ccccc12	-7.3%	-8.4%
25	O=C(O)c1ccccc1NC(=S)NC(=O)c1cccc2ccccc12	-5.5%	0.2%
26	COc1ccc(C)cc1NC(=O)Cn1nc(N2CCN(c3ccccc3OC)CC2)ccc1=O	-26.8%	-13.5%
27	Cc1cccc(-n2nc3c(c2NC(=O)c2c(F)cccc2F)CS(=O)(=O)C3)c1C	i	-10.6%
28	CCOc1ccc(-c2ccc(C3=CC(=O)C[C@H](c4ccc(F)cc4)C3)cc2)cc1	42.2%[activator]	2.7%
29	COc1ccc(OC2CCN(S(=O)(=O)c3ccc(F)cc3)CC2)cc1	i	4.0%
30	c1ccc2nc3c(cc2c1)CCCCC3	-12.3%	1.8%
31	COc1cc(Nc2ccn3nc(-c4ccccc4Cl)cc3n2)cc(OC)c1OC	-14.4%	-28.7%
32	Cc1cc(NC(=O)NC(=O)c2ccccc2)no1	i	-18.8%
33	C[C@H](NS(=O)(=O)c1ccc(Cl)cc1)C(=O)OCC(=O)NC(=O)Nc1ccc2c(c1)OCCO2	-19.1%	-12.8%
34	Fc1ccc(-c2cc(-c3ccccc3)nc(-n3cccn3)n2)cc1	-19.2%	-28.3%
35	COc1ccc(Cl)cc1NC(=O)Cc1c(F)cccc1Cl	-8.9%	-17.0%
36	Cc1cccc(N2CCN(C(=O)c3ccc4ccccc4c3)CC2C)c1 (centres undefined)	?	-12.7%
37	CC1CN(C)C(C)c2c1oc1ccc(N)cc21 (centres undefined)	?	-22.7%
38	CN1/C(=C\C=N\NC(=O)c2ccccc2Br)C(C)(C)c2ccccc21	1.7%	4.5%
39	COc1cc(/C=C/c2nc(C#N)c(NC3CCCCC3)o2)cc(OC)c1OC	-18.6%	-15.8%
40	CCc1cccc(C)c1NC(=O)Cn1ccn(-c2ccc(F)cc2)c(=O)c1=O	-11.3%	-2.3%
41	Cc1cccc(-n2c(SCC(=O)NCc3ccc4c(c3)OCO4)nc3ccccc3c2=O)c1	-8.2%	6.1%
42	COC(=O)c1ccc(NC(=O)CSc2ccc(-c3cccs3)nn2)cc1	-1.6%	-10.8%
43	Cc1nc(-c2ccc(S(=O)(=O)Oc3ccccc3Cl)s2)cs1	-1.4%	-7.8%
44	Cc1cc(N/N=C/c2ccccc2F)nc(NCc2ccccc2)n1	-1.7%	-16.6%
45	O=C1CN(CCN2CC(=O)NC(=O)C2)CC(=O)N1	44.3%[activator]	10.2%
46	COc1ccc(NC(=O)CN(C)C(=O)C(C)Sc2ccccc2)cc1 (centres undefined)	-8.1%	-12.6%
47	CCN(CC(=O)NCc1ccccn1)S(=O)(=O)c1ccc(Cl)cc1	·	-3.7%
48	OC1CCCN(CC(O)COc2ccc(-c3ccccc3)cc2)C1 (centres undefined)	-15.4%	3.7%
49	Cc1ccc(-n2nc(C(=O)Nc3ccc(C)c(F)c3)c(=O)n(C)c2=O)cc1	-5.2%	-12.8%
50	CCCCC(CC)C(=O)NCC(C)NC(=O)C(CC)CCCC (centres undefined)	-15.4%	-4.6%

# (listing goes on)
no.	Structure	VACV mCherry inh	VACV Venus inh
51	COc1ccccc1CNC(=O)C/C(C)=N/NC(=O)COc1ccc(C)cc1Br	-11.3%	-14.0%
52	O=C(Cc1ccsc1)N1CCN(S(=O)(=O)c2cccc(F)c2)CC1	i	-8.0%
53	CC(C)(C)C1CCC(=NNC(=O)CN(c2ccccc2)S(=O)(=O)c2ccccc2[N+](=O)[O-])CC1 (centres undefined)	i	-15.3%
54	COc1ccc(OCc2nnc(SCc3ccc(C(=O)O)cc3)o2)cc1	1.2%	-9.6%
55	COC(=O)c1cc(S(=O)(=O)NCC2CCN(Cc3ccc(F)cc3)CC2)cn1C	-16.3%	-3.5%
56	COc1cc(OC)cc(C(=O)Nc2cc(-c3nc4ccccc4[nH]3)ccc2C)c1	?	?
57	COC(=O)c1ccc(COc2ccc(C3C4=C(CCCC4=O)Nc4onc(C)c43)cc2)cc1 (centres undefined)	·	-9.7%
58	O=C(CSc1nnc(CNC(=O)c2ccccc2F)o1)NC1CCCCC1	-23.0%	-14.9%
59	CC(=O)Nc1nonc1-c1nnc(SCC(=O)Nc2ccc(C)c(Cl)c2)n1C	-7.9%	-10.1%
60	COc1ccccc1-c1nc2c(c(SCc3cc(C)ccc3C)n1)Cc1c(CO)cnc(C)c1O2	?	-24.1%
61	COc1cc(OC)cc(C(=O)Nc2ccccc2NC(C)=O)c1	·	-19.7%
62	Cc1cnc(NC(=O)CSc2c(Cl)cccc2Cl)s1	·	1.7%
63	O=C(CSc1ccc2nnc(-c3cccnc3)n2n1)NCC1CCCO1 (centres undefined)	i	-7.6%
64	COc1ccccc1/C=C/c1nc2ccc(OC(C)=O)cc2c(=O)o1	-8.8%	-4.4%
65	CC1(C)CC(=O)C2=C(C1)NC(=O)CC2c1cc2c(cc1Br)OCO2 (centres undefined)	·	?
66	Cc1ccc(NC(=O)CN(C)C(=O)c2cccc(S(=O)(=O)NCc3ccccc3)c2)cc1	-22.6%	-19.8%
67	C[C@@H]1O[C@@H](O[C@H]2C[C@@H](O)[C@]3(CO)[C@@H]4C(CC[C@]3(O)C2)[C@@]2(O)CC[C@H](C3COC(=O)C3)[C@@]2(C)C[C@H]4O)[C@H](O)[C@H](O)[C@H]1O (some centres undefined)	?	1.78µM*
68	CCc1nc2ccc(C(=O)NCc3cccs3)cn2c1N(CC)Cc1cccc(Br)c1	1.3%	-10.6%
69	CCc1ccc(-c2nc(SCC(=O)c3c(N)n(C)c(=O)n(C)c3=O)n[nH]2)cc1	-16.4%	-10.3%
70	C=CCc1ccc(OC)c(OC)c1	6.0%	4.2%
71	CC(C)(C)OC(=O)NOCC(=O)N(Cc1ccccc1)CC(O)COc1ccccc1 (centres undefined)	-12.3%	-12.9%
72	CC(C)C[C@H]1CNC(=S)N1CC1CCN(CC2CCCC2)CC1	-9.9%	-13.5%
73	O=C(c1cccc(C(F)(F)F)c1)N1C[C@H]2C[C@@H](C1)c1cccc(=O)n1C2	i	-5.1%
74	Cc1cc(-c2ccccc2)cc(C)[n+]1Cc1ccccc1	i	-18.6%
75	O=C(Nc1ccc(O)c2c(=O)cc(-c3ccccc3Cl)oc12)c1cccs1	i	3.7%

# Next part; the last 3 above are carried over.
no.	Structure	VACV mCherry inh	VACV Venus inh
73	O=C(c1cccc(C(F)(F)F)c1)N1C[C@H]2C[C@@H](C1)c1cccc(=O)n1C2	i	-5.1%
74	Cc1cc(-c2ccccc2)cc(C)[n+]1Cc1ccccc1	i	-18.6%
75	O=C(Nc1ccc(O)c2c(=O)cc(-c3ccccc3Cl)oc12)c1cccs1	i	3.7%
76	COc1cc(OC)cc(C(=O)NCC(c2cccs2)S(=O)(=O)c2ccc(F)c(C)c2)c1 (centres undefined)	-13.7%	-4.9%
77	CC(=NCc1ccc2c(c1)OCO2)c1c(O)n(-c2ccc(C)cc2)c(=O)[nH]c1=O	i	-9.7%
78	COc1ccc(-c2csc(NC(=O)CSc3nc4ccccc4c(=O)[nH]3)n2)cc1	i	-4.2%
79	O=C(CN1C(=O)c2cccnc2Oc2ccc(Cl)cc21)N1CCCCCC1	-13.6%	-12.8%
80	Cn1c(CC(=O)Nc2ccccc2F)nnc1SCC(=O)NC1=NCCS1	-5.5%	-0.9%
81	COc1ccc2[nH]c(=O)c(CN(C(=O)c3ccccn3)C3CCCCC3)cc2c1	·	?
82	CCOC(=O)c1sc(NC(=O)c2ccc(Br)o2)cc1C	·	?
83	COc1ccccc1CNC(=O)c1ccc2ccccc2n1	6.0%	1.5%
84	O=C1CC(O)(c2ccccc2)C(c2ccccc2)=C1c1ccccc1 (centres undefined)	-20.0%	-15.4%
85	CN(Cc1ccccc1)c1ncnc(N)c1[N+](=O)[O-]	-6.1%	-13.0%
86	CC(C)CNC(=O)COC(=O)Cc1ccc(Cl)cc1	i	-15.2%
87	CC(=O)Nc1cc(-c2cccc(C(=O)N(C)C)c2)cn2c(-c3ccc(C(C)=O)cc3)cnc12	i	-9.4%
88	Cc1noc(C)c1S(=O)(=O)NC(=O)C1(C)CCN1C(=O)CC(c1ccccc1)c1ccccc1 (centres undefined)	i	-2.3%
89	CCN(CCn1cccn1)Cc1c(C(=O)N2C[C@@H](C)O[C@@H](C)C2)nc2ccc(Cl)cn12	-2.1%	-10.1%
90	COc1ccc(NC2CC(=O)N(CCc3ccccc3)C2=O)cc1 (centres undefined)	·	-1.3%
91	C=CCc1c(C)nc2nc(SCC(=O)Nc3cccc(Cl)c3)nn2c1C	-24.8%	-23.8%
92	O=C(Nc1ncnc2sc3c(c12)CCCCC3)c1ccco1	-22.5%	-1.8%
93	COc1ccc(CCC2(C)OCC(CCCCO)O2)cc1 (centres undefined)	-5.5%	-10.1%
94	CC1(c2nnc(-c3cccc(Cl)c3)o2)CC(c2cccc(Cl)c2)=NO1 (centres undefined)	-12.3%	-16.1%
95	Cc1ccc(Nc2ccc(N)cc2S(=O)(=O)O)cc1	-8.4%	-3.3%
96	CCOc1cc(C)c(C(C)C)cc1S(=O)(=O)n1ccc(C)n1	·	-19.9%
97	CC(C)(C)C(=O)Nc1ccc(C(=O)NNC(=O)Cc2ccccc2)cc1	-6.6%[1.46 µM]	-11.1%
98	c1ccc(-n2nnnc2NCCCN2CCOCC2)cc1	·	-27.0%
99	COc1ccc(C(=O)NCc2ccc(C(=O)NCC(OC)OC)cc2)cc1OC	-13.0%	-8.7%
100	CCc1nc2ccc(C(=O)NCCOc3ccc(OC)cc3)cn2c1N(CC)CCOC	6.5%	-3.6%

# Whole records as entered above. Values in the order: VACV mCherry inh	VACV Venus inh
# Cc1cc(-c2ccccc2)cc(C)[n+]1Cc1ccccc1 is listed as i	-18.6%
# CC(C)(C)OC(=O)NOCC(=O)N(Cc1ccccc1)CC(O)COc1ccccc1 (centres undefined) is listed as -12.3%	-12.9%

# Later entries
no.	Structure	VACV mCherry inh	VACV Venus inh
101	C=Cc1ccc(Cn2c(C(=O)O)c(CNCc3ccccc3)c3ccc(C)cc32)cc1	?	12.6µM*
102	CCOc1ccc(CCNC(=O)C2CCCN(c3nn4c(=O)cc(C)nc4s3)C2)cc1 (centres undefined)	·	-16.1%
103	CN1CCN(C(=O)NCC23CC4CC(CC(C4)C2)C3)CC1	i	-11.7%
104	COc1cc(NC(=O)CSc2nc3c(c(=O)[nH]2)CCCC3)cc(OC)c1OC	-1.4%	-2.1%
105	COc1cc(SC)ccc1C(=O)NCCOc1ccc(Cl)cc1	-4.2%	-10.7%
106	Cn1c(-c2ccccc2O)cc2ccccc21	·	?
107	Cc1nn(-c2ccccc2)c2c1N(CCCC(=O)NCc1ccc(OC(C)C)cc1)C(=O)CS2	-21.3%	-24.6%
108	O=C(O)c1[nH]n(-c2ccc(S(=O)(=O)O)cc2)c(=O)c1N=Nc1ccc(S(=O)(=O)O)cc1	3.4%	-4.2%
